Anthrax LT inh = qHTS Assay for Anthrax Lethal Toxin Internalization. Cells, anthrax lethal toxin internalization, FRET ratio (460/530). AID 912, 2007. Potency, µM (titrated, usually from 40 µM), for inactives: at the top dose activity change, negative = inhibition, usual class: inhibitors. 70,000 tested, 0.67% active; active = well fitted falling ratio curve with the 530 nm signal flat; inconclusive = other ratio curves, or a change in one channel alone; inactive = flat curves in the ratio and both channels; the % refers to the ratio; also: % is scaled to controls: 0 for no effect and ±100 for the full control effect; nearly all actives have a fitted effect of over 50% in size; tested in ME-180 cells; beta-lactamase reporter
Prx2 Sm inh = Schistosoma Mansoni Peroxiredoxins (Prx2). Schistosoma mansoni peroxiredoxin 2 (Prx2). S. mansoni Prx2 activity coupled to TGR/GSH (TGR is thioredoxin glutathione reductase), NADPH fluorescence loss, qHTS; some inactives read as strong as hits. Potency, µM. 65,000 tested, 0.07% active. AID 448, 2006; active means full or partial inhibition curve with a strong effect at the top dose; inconclusive means weaker partial or single-point curve; inactive means no accepted curve; also: series up to 57 µM; many of its hits are not listed in these tables
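Prx2 inhibition was measured as reduced NADPH consumption when electrons flowed from NADPH through TGR and glutathione to Prx2 and H2O2. Plates were read kinetically over 8 min; enzyme reagents were held at 4 deg C during dispensing.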
An asterisk follows results filed as active; & = joins results of further samples; [ ] = dose if it differs, or a comment. Potency is read from the fitted curve at half-maximal effect. An excerpt. The share of hits here may be higher or lower than overall.

What do the screens show for `Cc1ccc(SC/C(O)=C(\C#N)c2nc3ccccc3s2)cc1`?
Anthrax LT inh: 0%; Prx2 Sm inh: >57

What do the screens show for `O=C(Oc1ccccc1)N1CCC[C@@]2(CCN(Cc3cc(C(F)(F)F)cc(C(F)(F)F)c3)C2)C1`?
Anthrax LT inh: inconclusive; Prx2 Sm inh: >57

Results for CS/C(=N\S(=O)(=O)c1ccc(N)cc1)NS(=O)(=O)c1cccs1 ?
Anthrax LT inh: inconclusive; Prx2 Sm inh: >57

Results for CC1CC(C(F)(F)C(F)(F)F)n2nc(C(=O)O)cc2N1 (configuration not stated) ?
Anthrax LT inh: inconclusive; Prx2 Sm inh: >57

What do the screens show for `CCCN1CCCc2cc(CN)ccc21`?
Anthrax LT inh: 27%; Prx2 Sm inh: >57

Results for O=C(CN1CCN(C(=O)c2cccc(F)c2)CC1)NC1CCCCC1 ?
Anthrax LT inh: 1%; Prx2 Sm inh: >57

Results for COc1ccc(-c2c(C)nn3c(N4CCC(C(=O)NCCN(C)C)CC4)cc(C)nc23)cc1OC ?
Anthrax LT inh: 0%; Prx2 Sm inh: >57

How did CS(=O)(=O)N(CC(=O)Nc1ccc2c(c1)OCO2)Cc1ccccc1 do in these assays?
Prx2 Sm inh: >57

What do the screens show for `COc1ccc(C2=NOC(Cn3c(Cc4ccc(Cl)cc4)nc4c3c(=O)n(C)c(=O)n4C)C2)cc1` (configuration not stated)?
Anthrax LT inh: inconclusive; Prx2 Sm inh: >57

What do the screens show for `C#C[C@@]1(O)CC[C@@H]2[C@@H]3CCC4=C(CCC(=O)C4)[C@H]3CC[C@]21C`?
Anthrax LT inh: 4%[3.58 µM]; Prx2 Sm inh: >57

What do the screens show for `CCOC(=O)N1CCC(NC(=O)c2cc3c(-c4ccccc4F)nn(C)c3s2)CC1`?
Anthrax LT inh: 15%; Prx2 Sm inh: >57

How did O=C(Cn1nnc(-c2ccncc2)n1)Nc1ccc2c(c1)CCC2 do in these assays?
Anthrax LT inh: -16%; Prx2 Sm inh: >57

What do the screens show for `COC(=O)[C@H](C)NC(=O)Nc1ccc(Oc2ccccc2)cc1`?
Anthrax LT inh: -4%; Prx2 Sm inh: >57

What do the screens show for `CN(C)CCOC(=O)c1ccc(N)cc1`?
Anthrax LT inh: 0%[8 µM]; Prx2 Sm inh: >57

How did COc1ccc(-c2noc(CCC(=O)Nc3ccc4c(c3)OCCO4)n2)cc1 do in these assays?
Anthrax LT inh: inconclusive; Prx2 Sm inh: >57

What do the screens show for `COc1ccc(C(=O)NCc2n[nH]c(=S)n2-c2ccccc2)cc1OC`?
Anthrax LT inh: -4%; Prx2 Sm inh: >57

What do the screens show for `CC(=O)Nn1c(COc2ccccc2C)nc2ccccc2c1=O`?
Anthrax LT inh: -2%; Prx2 Sm inh: >57

How did Cc1ccc(/C=N/n2cnc3sc4c(c3c2=O)CCCC4)o1 do in these assays?
Anthrax LT inh: inconclusive

Results for COC(=O)CC1Sc2ccccc2NC1=O (configuration not stated) ?
Anthrax LT inh: 12%; Prx2 Sm inh: >57

Results for CN(C)C(=O)CSc1nnc(-c2cc(-c3cccs3)nc3ccccc23)o1 ?
Anthrax LT inh: inconclusive; Prx2 Sm inh: >57

What do the screens show for `CC(=O)c1cc(C)ccc1OC(=O)c1cccc2nc(C)oc12`?
Anthrax LT inh: 0%; Prx2 Sm inh: >57

Results for COc1cc(OC)c(OC)cc1CN(C)CCc1ccccn1 ?
Anthrax LT inh: -7%; Prx2 Sm inh: >57

Results for O=C(CSc1nnnn1C1CCCCC1)Nc1cccc(NC(=O)c2ccco2)c1 ?
Anthrax LT inh: -5%; Prx2 Sm inh: >57

What do the screens show for `COc1ccc(N2CCN(c3nc4c(c(=O)n(C)c(=O)n4C)n3CCCc3ccccc3)CC2)cc1`?
Anthrax LT inh: 2%; Prx2 Sm inh: >57

How did Cc1noc(C)c1COC(=O)CN(C)S(=O)(=O)c1ccc(Cl)cc1 do in these assays?
Anthrax LT inh: 7%; Prx2 Sm inh: >57

Results for Cc1noc(C)c1-c1nc(NCCN2CCOCC2)c2ccccc2n1 ?
Anthrax LT inh: 14%; Prx2 Sm inh: >57

How did COc1cccc(C(=O)COC(=O)C(C)N2C(=O)c3ccccc3C2=O)c1 (configuration not stated) do in these assays?
Anthrax LT inh: 7%

Results for COc1cccc(-c2cc3nc4c(c(N5CCC6(CC5)OCCO6)n3n2)CCCC4)c1 ?
Anthrax LT inh: inconclusive; Prx2 Sm inh: >57

Results for CC(=O)Nc1ccc(S(=O)(=O)c2ccc(N)cc2)cc1 ?
Anthrax LT inh: 1%; Prx2 Sm inh: >57

How did CCC(C(=O)OC)n1cnc2c(cnn2-c2ccc(Cl)cc2)c1=O (configuration not stated) do in these assays?
Anthrax LT inh: -8%; Prx2 Sm inh: >57

Structures above that contain a CF3 group:
What do the screens show for `O=C(Oc1ccccc1)N1CCC[C@@]2(CCN(Cc3cc(C(F)(F)F)cc(C(F)(F)F)c3)C2)C1`?
Anthrax LT inh: inconclusive; Prx2 Sm inh: >57

Results for CC1CC(C(F)(F)C(F)(F)F)n2nc(C(=O)O)cc2N1 (configuration not stated) ?
Anthrax LT inh: inconclusive; Prx2 Sm inh: >57

Next part.
What do the screens show for `Cn1c(SCc2c(Cl)cccc2Cl)nnc1-c1cccs1`?
Anthrax LT inh: -13%; Prx2 Sm inh: >57

What do the screens show for `CNS(=O)(=O)c1ccc(Oc2ccc(S(=O)(=O)NC)cc2)cc1`?
Anthrax LT inh: -10%

Results for CC(C)(C)NC(=O)Cn1nnc(-c2cccs2)n1 ?
Anthrax LT inh: inconclusive; Prx2 Sm inh: >57

Results for CCCc1nc(SCC(=O)N2CCCc3ccccc32)c2c(=O)n(C)c(=O)n(C)c2n1 ?
Anthrax LT inh: inconclusive; Prx2 Sm inh: >57

What do the screens show for `COC(=O)[C@@]1(Cc2ccc(F)cc2)[C@H]2c3cc(C(=O)N4CCCC4)n(Cc4cccc5ccccc45)c3C[C@H]2CN1C(=O)c1ccccc1`?
Anthrax LT inh: inconclusive; Prx2 Sm inh: >57

How did O=C1CC(N2CCN(Cc3ccccc3)CC2)C(=O)N1CCc1ccccc1 (configuration not stated) do in these assays?
Anthrax LT inh: -14%; Prx2 Sm inh: >57

How did O=C(Nc1ccccc1)N1CCC2(CC1)CCN(C(=O)c1ccco1)CC2 do in these assays?
Anthrax LT inh: inconclusive; Prx2 Sm inh: >57

How did COc1ccc2[nH]c(C)c(CCN3C(=O)C4CC=CCC4C3=O)c2c1 (configuration not stated) do in these assays?
Anthrax LT inh: -3%; Prx2 Sm inh: >57

What do the screens show for `Nc1nc(N)c2[nH]cnc2n1` (tested in a mixture with another compound)?
Anthrax LT inh: 8%[8 µM]; Prx2 Sm inh: >57

What do the screens show for `CCOc1ccccc1C(=O)N(C)Cc1cc2cc(OC)ccc2[nH]c1=O`?
Anthrax LT inh: 1%; Prx2 Sm inh: >57

Part of the list above in order of SMILES length, descending.
Results for CCCc1nc(SCC(=O)N2CCCc3ccccc32)c2c(=O)n(C)c(=O)n(C)c2n1 ?
Anthrax LT inh: inconclusive; Prx2 Sm inh: >57

How did COc1ccc2[nH]c(C)c(CCN3C(=O)C4CC=CCC4C3=O)c2c1 (configuration not stated) do in these assays?
Anthrax LT inh: -3%; Prx2 Sm inh: >57

What do the screens show for `CNS(=O)(=O)c1ccc(Oc2ccc(S(=O)(=O)NC)cc2)cc1`?
Anthrax LT inh: -10%

Results for CC(C)(C)NC(=O)Cn1nnc(-c2cccs2)n1 ?
Anthrax LT inh: inconclusive; Prx2 Sm inh: >57

Carrying on:
Results for COc1ccccc1OCC(=O)c1[nH]c(C)c(C(C)=O)c1C ?
Anthrax LT inh: -1%; Prx2 Sm inh: >57

How did COc1ccc(CNc2ncncc2-c2c(C)noc2C)c(OC)c1 do in these assays?
Anthrax LT inh: -4%; Prx2 Sm inh: >57

What do the screens show for `Cc1occc1-c1nnc(SCC(=O)NC(C)(C)C)n1C(C)c1ccccc1` (configuration not stated)?
Anthrax LT inh: -19%; Prx2 Sm inh: >57

How did Cc1cc(O)c(C(C)C)cc1NC(=O)Cn1nc(C)c2ccccc2c1=O do in these assays?
Anthrax LT inh: -28%; Prx2 Sm inh: >57

Results for CN1CCCC2(CCN(C(=O)c3ccco3)CC2)C1 ?
Anthrax LT inh: 10%; Prx2 Sm inh: >57

Results for Cn1c2c(c(=O)n(C)c1=O)C(c1cc3c(cc1Br)OCO3)CC(=O)N2 (configuration not stated) ?
Anthrax LT inh: 1%; Prx2 Sm inh: >57

Results for O=S(=O)(c1ccccc1)N1CCC2(CCCN(C(c3ccccc3)c3ccccc3)C2)CC1 ?
Anthrax LT inh: inconclusive; Prx2 Sm inh: >57

How did Cc1cccc(C)c1Nc1nnc(SCC(=O)NCc2ccco2)s1 do in these assays?
Anthrax LT inh: 0%; Prx2 Sm inh: >57

How did O=C(COc1ccc(Cl)cc1)NCc1nnc(SCC(=O)Nc2ccc3c(c2)OCCO3)o1 do in these assays?
Anthrax LT inh: 2%; Prx2 Sm inh: >57

Results for Cc1cccc2cc(CN(CCN3CCOCC3)C(=O)NCc3ccccc3)c(=O)[nH]c12 ?
Anthrax LT inh: 6%; Prx2 Sm inh: >57

What do the screens show for `O=C(O)c1ccc2c(c1)C(=O)N(CCC1=CCCCC1)C2=O`?
Anthrax LT inh: inconclusive; Prx2 Sm inh: >57

What do the screens show for `O=Cc1ccc(Cl)c(Cl)c1`?
Anthrax LT inh: 12%

What do the screens show for `COc1ccc(S(=O)(=O)CCC(=O)NCCc2ccc(S(N)(=O)=O)cc2)cc1`?
Anthrax LT inh: inconclusive; Prx2 Sm inh: >57

How did CCN(CC)CCNC(=O)c1ccc(N)cc1 do in these assays?
Anthrax LT inh: -1%[3.58 µM]; Prx2 Sm inh: >57&>57

Results for CNC(=O)CSc1nnc(-c2cccc(S(=O)(=O)N3CCOCC3)c2)n1-c1ccc(F)cc1 ?
Anthrax LT inh: -5%; Prx2 Sm inh: >57

How did Cc1cc(NC(=O)c2cnn3c(C(F)(F)F)cc(-c4ccccc4)nc23)no1 do in these assays?
Anthrax LT inh: 19%; Prx2 Sm inh: >57

Results for O=C(c1ccc2nccnc2c1)N1CCN(Cc2ccc3c(c2)OCO3)CC1 ?
Anthrax LT inh: -16%; Prx2 Sm inh: inconclusive

What do the screens show for `c1csc(CNc2ncnc3nc[nH]c23)c1`?
Anthrax LT inh: 19%; Prx2 Sm inh: >57

Results for CN1C[C@@H](CNC(=O)OCc2ccccc2)C[C@H]2c3cccc4c3c(cn4C)C[C@@H]21 ?
Anthrax LT inh: inconclusive; Prx2 Sm inh: >57

How did COC(=O)c1cc2oc3ccccc3c2n1CC(=O)Nc1ccccc1OC do in these assays?
Anthrax LT inh: 6%; Prx2 Sm inh: >57

Results for CC(=O)N1CN(C2CCS(=O)(=O)C2)Cc2c1sc1c2CCCC1 (configuration not stated) ?
Anthrax LT inh: -7%; Prx2 Sm inh: >57

Results for O=C(c1ccc(Br)o1)N1CCN(c2ccc(F)cc2)CC1 ?
Anthrax LT inh: -11%; Prx2 Sm inh: >57

Results for O=S(=O)(c1ccccc1)N1CCC2(CC1)CN(C(c1ccccc1)c1ccccc1)C2 ?
Anthrax LT inh: inconclusive; Prx2 Sm inh: >57

What do the screens show for `O=C(c1ccc(=O)[nH]c1)N(Cc1ccco1)C1(C(=O)NC2CCCCC2)CCCCC1`?
Anthrax LT inh: 12%; Prx2 Sm inh: >57

Results for NC(=O)C1CCN(C(=O)CSc2nc3c(c(-c4ccccc4)n2)CCCC3)CC1 ?
Anthrax LT inh: 8%; Prx2 Sm inh: >57

What do the screens show for `COc1ccc(C#CC2C=CC(Oc3cc(C)cc(C)c3)C(CO)O2)cc1` (configuration not stated)?
Anthrax LT inh: -13%[8 µM]

What do the screens show for `COc1ccc(C)cc1NC(=O)CSc1nnc(-c2ccco2)n1Cc1ccco1`?
Anthrax LT inh: inconclusive; Prx2 Sm inh: >57

Results for CN(Cc1cccs1)S(=O)(=O)c1cccs1 ?
Anthrax LT inh: -3%; Prx2 Sm inh: >57

Results for Cc1ccccc1Nc1nn2c(=O)c3ccccc3nc2s1 ?
Anthrax LT inh: 20%; Prx2 Sm inh: >57

What do the screens show for `O=c1cc(C2CCNCC2)[nH][nH]1`?
Anthrax LT inh: 5%; Prx2 Sm inh: >57

What do the screens show for `O=C(O)c1ccc(OCc2occc2C(=O)O)cc1`?
Anthrax LT inh: -1%; Prx2 Sm inh: >57

What do the screens show for `CCSc1nc(=O)n(-c2ccccc2)c(C)c1C(C)=O`?
Anthrax LT inh: -3%; Prx2 Sm inh: >57

Results for Cc1ccc(-c2nc3cc(N)ccc3o2)c(C)c1 ?
Anthrax LT inh: inconclusive; Prx2 Sm inh: >57

What do the screens show for `O=C(COc1ccc(Cl)cc1)N1CCN(c2ncccn2)CC1`?
Anthrax LT inh: 3%; Prx2 Sm inh: >57

Results for C[C@H]1O[C@@H](CC(=O)O)Cc2c1c(O)c1c(O)cc(-c3cc(=O)c4c(=O)c5c(c(=O)c=4c3=O)C[C@H](CC(=O)O)O[C@@H]5C)c(O)c1c2O ?
Anthrax LT inh: -10%[8 µM]; Prx2 Sm inh: >57

Results for Cc1c(C(=O)NCCc2ccccc2)oc2ccc(S(=O)(=O)N3CCC4(CC3)OCCO4)cc12 ?
Anthrax LT inh: inconclusive; Prx2 Sm inh: >57

How did CC1=CC(C)C2C(=O)N(CCC[N+](C)(C)C)C(=O)C2C1 (configuration not stated) do in these assays?
Anthrax LT inh: -13%; Prx2 Sm inh: >57

High-throughput results (PubChem BioAssay)
